Vaccinia pol inh – vaccinia E9 polymerase processive synthesis inhibitors, primary screen, biochemical, absorbance. Vaccinia virus DNA polymerase (E9) processive complex. normalized absorbance, % (test concentration not listed). 46,000 compounds, 0.94% hits. AID 493162, 2011. in vitro processive DNA synthesis, absorbance read-out; hits give low values; some inactives read as strong as hits;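 active = replicate mean up to 90% and picked by the depositor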;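 note: 100% = median of the test wells of a plate; 100 nL library stock went into each well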
Starred values were filed as active, the others as inactive.

SMILES	Vaccinia pol inh
Cn1c(=O)cc(SCC(=O)NC2CCCCC2)c2ccccc21	96.1
O=C(COCC(=O)N1CCc2ccccc21)N1CCc2ccccc21	100.6
CCOc1ccc(N2C(=O)c3ccccc3NC2(CC)CC)cc1	99.8
O=C(COC(=O)/C=C/c1ccco1)NC1CCCCC1	78.7
S=C(NC1CCCCC1)C(=S)NC1CCCCC1	97.2
CCC(C)c1ccc(NC(=S)NC(=O)c2ccco2)cc1 (stereo unspecified)	100.0
O=C(CCCn1nc(-c2ccccc2)c2ccccc21)N1CCc2ccccc21	97.7
CCn1cc(C(=O)NC2CCCCCC2)c(=O)c2ccc(C)nc21	102.1
O=C(C1CCCN(Cc2cccc(Cl)c2)C1)N1CCCCCC1 (stereo unspecified)	98.3
NC(=O)CCSC(=S)N1CCOCC1	101.6
CCN(C(=O)c1cc2c(=O)n3cccc(C)c3nc2s1)c1ccc(OC)cc1	101.5
CC1=CC(=O)OC(c2ccccc2)C1 (stereo unspecified)	107.9
CCOc1ccc(-c2csc(/C(C#N)=C/Nc3ccc4c(c3)OCO4)n2)cc1	100.9
Cc1nc(N=C(N)N)nc2ccccc12	81.2
CC(C)CCNC(=O)c1cc2c(=O)oc3ccccc3c2s1	96.1
CCOc1ccccc1NC(=O)COC(=O)Cc1c(Cl)cccc1Cl	95.0
O=C(Nc1ccc2sccc2c1)c1cccc(N2C(=O)CCC2=O)c1	101.2
CC1(C)CC(=O)c2cc3c(N)c(C(N)=O)sc3nc2C1	101.0
S=C(NCCCN1CCOCC1)N(Cc1ccccc1)Cc1ccccc1	99.6
O=C(CCCN1CCC(O)(c2ccc(Cl)cc2)CC1)c1ccc(F)cc1	97.4
Cc1ccc(C(=O)Nc2ccc(S(=O)(=O)N3CCCCC3c3cccnc3)cc2)cc1 (stereo unspecified)	99.0
COc1ccc(/C=C/C2=CCN(Cc3ccccc3)CC2)cc1	101.6
O=S(=O)(/C=C/c1ccccc1)N1CCCCC1	98.7
Cc1cc2cc(CNC(=O)CC3CCCCC3)ccc2[nH]1	100.0
CCOc1ccc(Nc2oc(COc3ccccc3Cl)nc2C#N)cc1	86.8
C/C(=C\C(=Nc1ccc2c(c1)OCO2)c1ccccn1)c1ccccn1	97.7
COc1cccc(OCCNC(=O)c2cccc3ccccc23)c1	100.4
CC1(C)C(C(=O)N2CCN(c3ccc(Cl)cc3)CC2)C1(C)C	99.9
N#Cc1nc(-c2ccccc2)oc1N1CCCCC1	98.5
Nc1ccccc1NC1=CC(=O)CC(c2c(F)cccc2Cl)C1 (stereo unspecified)	114.9
CC(C)CCNC(=O)c1cc(-c2ccco2)nc2ccccc12	90.3
Cc1ccccc1Nc1nn2c(=O)c3ccc(C(=O)NCc4ccccc4Cl)cc3nc2s1	96.3
CCOc1ccc(OCc2ccc(C(=O)NN)o2)cc1	100.0
COc1ccc(N2C3=[N+](CCCC3)CC2(C)O)cc1 (stereo unspecified)	103.0
COC(=O)c1cccc2c1-c1ccccc1/C2=N/O	57.6*
CCC1C(C#N)=C(SC)NC2=C1C(=O)CC(C)(C)C2 (stereo unspecified)	98.1
CN1CC(C#N)=C(NC2CCCCC2)C1=O	100.7
CC(C)(C)OC(=O)N1CC(O)CC1C(=O)N1CCOCC1 (stereo unspecified)	99.1
COc1cc2c3c(c1OC)C1(C=CC(=O)C=C1)CC3[N+](C)(C)CC2 (stereo unspecified)	75.6
O=C(NCCOc1ccccc1-c1ccccc1)c1ccco1	98.7

Two entries picked at random from those above, as already listed:
SMILES	Vaccinia pol inh
C/C(=C\C(=Nc1ccc2c(c1)OCO2)c1ccccn1)c1ccccn1	97.7
CCOc1ccc(Nc2oc(COc3ccccc3Cl)nc2C#N)cc1	86.8

Next part:
SMILES	Vaccinia pol inh
CC(C)(C)c1ccc(C(=O)CC(SC2CCCCC2)C(=O)O)cc1 (stereo unspecified)	99.4
Cc1nc2cc(Cl)ccc2c(=O)n1-c1nc2ccccc2[nH]1	103.3
COc1ccc2oc(=O)c(-c3csc(C)n3)cc2c1	87.3
CCc1ccc(-n2c(=S)sc3c(=O)n(-c4ccccc4)c(SCC#N)nc32)cc1	96.4
Cc1cc(O)c2c(-c3ccccc3)cc(=O)oc2c1	98.0
COC(=O)CC1C(=O)NCCN1C(=O)NC1CCCCC1 (stereo unspecified)	102.2
Cc1cccc(C(C)C)c1NC(=O)c1ccncc1	99.6
Cc1nc2sc3c(NC4CCCCC4)ncnc3c2c2c1COC(C)(C)C2	89.2
CCOC(=O)c1c(NC(=O)CSc2nnc(C)s2)sc2c1CCCCC2	88.0
CC1(C)C(=O)OC(c2ccc(F)cc2)C(C)(C)C1=O (stereo unspecified)	101.0
Cc1ccc(C2C(C=C3C(=O)NC(=O)NC3=O)=C(c3cccs3)Oc3ccccc32)cc1 (stereo unspecified)	100.4
Cc1cc(Cl)ccc1OCCCC(=O)NC1CCSC1=O (stereo unspecified)	100.2
Cc1cc(C)c(N=c2scc(C)n2Cc2ccccc2)c(C)c1	99.9
CCCNC(=O)c1cc2c(s1)CS(=O)(=O)C2	104.1
CCOC(=O)c1sc(NC(=O)COc2ccc(Cl)cc2)nc1C	95.3
Cc1ccc(S(=O)(=O)N(CC(=O)Nc2cccnc2)c2cc(C)cc(C)c2)cc1	99.8
CC[C@H]1OC(=O)[C@H](C)[C@@H](O[C@H]2C[C@@](C)(OC)[C@@H](O)[C@H](C)O2)[C@H](C)[C@@H](O[C@@H]2O[C@H](C)C[C@H](N(C)C)[C@H]2O)[C@](C)(O)C[C@@H](C)/C(=N\OCOCCOC)[C@H](C)[C@@H](O)[C@]1(C)O	100.0
CCOC(=O)N1CCN(C(=O)c2ccc3c(c2)ncn3C2CCCC2)CC1	102.4
Cc1ccnc(S(=O)(=O)Cc2ccc(Cl)cc2)n1	108.6
Cc1ccc2c(c1)C1CN(C)CCC1N2S(=O)(=O)c1ccccc1 (stereo unspecified)	95.9
O=C(Cc1cc(F)cc(F)c1)Nc1ccc(F)cc1	100.0
O=C(OCc1ccccc1F)C1CCCC1	105.2
CC(C)(C)c1ccc(Oc2ncccc2C(=O)O)cc1	99.2
Cc1cccc(NC(=O)Cn2cc(C(=O)C3CC3)c3ccccc32)c1	103.1
COc1ccc(S(=O)(=O)n2cnc3cc(C)c(C)cc32)cc1OC	97.7
COc1ccc(CCNC(=O)c2ccc3nc4ccc(Cl)cc4c(=O)n3c2)cc1OC	104.8
COc1ccc2[nH]c3c(=O)n(CCC(=O)NC4CCCCCC4)c(=S)[nH]c3c2c1	91.8
Cc1ccc(C(=NCc2ccccc2)NC#N)cc1	99.6
Cc1ccc(CNC(=O)CN(C)S(=O)(=O)c2cccs2)cc1	96.9
N#Cc1ccc(-n2c(-c3ccccc3)nnc2-c2ccccc2)cc1C#N	99.9
O=c1[nH]cc(N2CCN(Cc3ccccc3)CC2)c(=O)[nH]1	110.9
O=C(c1ccc2c(c1)CCCC2)N1CCN(c2ccccc2)CC1	100.6
CN(C)/C=C1\SC(=O)N(c2ccccc2)C1=O	93.6
Cc1cc(C)n(CCC(=O)O)n1	99.7
O=S(=O)(Cc1ccccc1)Nn1cnnc1	100.2
COc1ccc2[nH]c3c(=O)n(CC(=O)N(C)Cc4ccccc4)c(=S)[nH]c3c2c1	102.2
CCOC(=O)CNc1ncc(C(F)(F)F)cc1Cl	117.1
COc1cc(OC)c2nc(C)c3c(c2c1)CN(C(=O)Nc1ccccc1)C3	97.2
CCOC(=O)c1cnc(=S)[nH]c1C(F)(F)F	107.7
CNC(=O)C(C)n1c(C)c2cnn(-c3ccccc3)c(=O)c2c1C (stereo unspecified)	92.2
CC(=O)N1N=C(c2ccc(N(C)C)cc2)CC1NC(Cc1c[nH]c2ccccc12)C(=O)O (stereo unspecified)	100.0
Cc1ccsc1C(=O)OCC(=O)N1CCc2ccccc21	98.3
O=C(CSc1nnc(CNC(=O)c2ccccc2)n1-c1ccccc1)c1ccccc1	101.2
CCn1nccc1C(=O)Nc1cc(Cl)ccc1Cl	100.5
Cc1cc(C)cc(Nc2csc(/N=C/NO)n2)c1	100.4
CN(C(=O)c1nc(-c2cccc(F)c2)n2c1CCCCC2)c1ccccc1	91.7
O=C(NCC1CCCO1)c1ccc(CN2CCc3ccccc3C2)cc1 (stereo unspecified)	95.0
N#CC(=C1CCCC1)c1nc2ccccc2s1	102.9
CC1(C)CN(c2ccc(C(F)(F)F)cc2)C1=O	105.5
CN(C)/C=C1\N=C(SCc2c(Cl)cccc2Cl)NC1=O	101.8
Cc1ccc(C2C3=C(CCCC3=O)OC3=C2C(=O)CCC3)o1	80.2
COc1cccc(NC(=O)c2ccc(OC(=S)N3CCC(C)CC3)cc2)c1	100.4
CCCc1ccc(OCCNC(=O)c2ccc3ccccc3n2)cc1	100.8
CSc1sc(/C(C)=N\O)c2c1/C(=N\O)CC(C)(C)C2	102.9
C=C(C)CC1NC2CC(C)(C)C1c1ccccc12 (stereo unspecified)	99.7
O=C(Nc1ccccc1N1CCOCC1)NC1CCN(C(=O)OCc2ccccc2)CC1	74.0
CC(=O)Oc1coc2ccc3c(C)cc(=O)oc3c12	97.4
O=S(=O)(Oc1ccccc1N1CCCCC1)c1ccc(-c2ccccn2)s1	101.7
CCOc1ccc(NC(=O)CSC2=C(C#N)C(c3cccs3)C3=C(CC(C)(C)CC3=O)N2)cc1 (stereo unspecified)	98.9
Cc1ccc(C2=NNC(c3cccc(C)n3)S2)cc1 (stereo unspecified)	99.4

Next structures follow:
SMILES	Vaccinia pol inh
O=c1cc(CO)oc(C(Nc2ccccn2)c2ccc(F)cc2)c1O (stereo unspecified)	99.8
O=C(NCC1CCCO1)c1ccc2c(Cl)c3c(nc2c1)CCCC3 (stereo unspecified)	100.1
Cc1ccc(S(=O)(=O)N2CCN(S(=O)(=O)c3ccccc3)C2C(C)C)cc1 (stereo unspecified)	100.5
O=C(c1ccncc1)N1c2ccccc2Sc2ccccc21	99.7
COC(=O)COc1ccc2c(-c3ccccc3)cc(=O)oc2c1	101.2
CCCC(=O)Nc1nnc(SCC(=O)Nc2ccccc2C(F)(F)F)s1	101.6
O=C(Oc1ccc2cc(OC(=O)c3ccccc3)ccc2c1)c1ccccc1	100.4
Cc1cc(C(=O)OCC(=O)Nc2ccccc2)c(C)o1	104.5
CC12CC3(C(=O)Nc4ccc(Br)cc4)C1CCC23C (stereo unspecified)	95.8
O=C(CSc1nc2c(c(=O)n1-c1ccccc1)SCC2)OCc1ccccc1	98.8
O=C(OCc1nc2ccccc2s1)c1ccc(N2C(=O)CCC2=O)cc1	100.0
C=C(C)Cn1c(C(C)O)nc2ccccc21 (stereo unspecified)	100.7
CC(=Nc1ccc(C)cc1C)c1sc2ccccc2c1O	100.2
CC1(C)CCc2cc(-c3ccn(S(=O)(=O)c4ccc(Cl)cc4)n3)ccc2O1	99.2
NC(=O)C[n+]1cccc2ccccc21	99.8
CN(CC(=O)N1CCc2ccccc2C1)c1ccccc1	105.3
O=C1NCCCCC1NS(=O)(=O)c1cccc2ccccc12 (stereo unspecified)	101.8
Cc1n[nH]c(C)c1Cc1ccc(O)cc1	91.0
Cc1ccc(C)n1NC(=O)c1ccncc1	97.5
NC(=O)c1c(N)sc2c1CCCC2	95.0
CCCC(C)NC(=O)N1CCOCC1 (stereo unspecified)	99.6
O=C(O)C1C2C=CC(O2)C1C(=O)Nc1cccc(C(F)(F)F)c1 (stereo unspecified)	105.8
CCCC(=O)c1c(O)c2ccccc2oc1=O	101.1
O=C(c1ccccc1F)N1CCNCC1	107.0
Clc1ccc2c(c1)c1cc(Cl)ccc1n2CN1CCCCC1	85.7
CCCCn1c(SCC(=O)Nc2ccccc2C(F)(F)F)nc2ccsc2c1=O	101.5
COC(=O)c1ccc(N=Cc2ccc(Br)s2)cc1	97.7
Clc1ccc2nc(N3CCOCC3)nc(-c3ccccc3)c2c1	101.9
CC1SC(C)C(=O)N(CC(=O)NC2CCCCC2)C1=O (stereo unspecified)	105.8
O=C(O)c1cccnc1	100.0
O=C(CSc1ccc(Cl)cc1)c1cc2ccccc2o1	97.5
CC1(C)NC(=O)N(c2ccccc2)N1	98.5
CCOC(=O)Cn1c(=O)cc(C)c2ccccc21	106.4
CN(C(=O)c1cccs1)C1CCS(=O)(=O)C1 (stereo unspecified)	93.7
CCOC(=O)CC1Sc2ccccc2N=C1SCC(=O)Nc1ccc(Cl)cc1Cl (stereo unspecified)	87.8
Cc1nnsc1C(=O)Nc1ccc(CN2CCS(=O)(=O)CC2)cc1	106.5
CCOc1ccccc1OCC(=O)O	104.2
O=c1[nH]c(SCc2cc(=O)n3ccccc3n2)nc2c1CCC2	94.6
Cc1oc(-c2ccccc2)cc1C(=O)NC(C)C12CC3CC(CC(C3)C1)C2 (stereo unspecified)	99.5
COc1ccc(-c2nc(N)s[n+]2-c2ccccc2)cc1	84.2
CCCCN(C)C(=O)C1CCN(c2nn3cc(-c4ccc(OC)cc4)nc3s2)CC1	103.4
O=c1c2ccccc2nc(-c2ccccc2)n1OCc1ccc(Br)cc1	92.2
CN(c1c[nH]c(=O)[nH]c1=O)C1CCCCC1	97.7
CCn1nc(N)c2c(O)[nH]c(=O)cc21	88.9

Not a retest: an excerpt of the list.
SMILES	Vaccinia pol inh
Cc1oc(-c2ccccc2)cc1C(=O)NC(C)C12CC3CC(CC(C3)C1)C2 (stereo unspecified)	99.5
COc1ccc(-c2nc(N)s[n+]2-c2ccccc2)cc1	84.2
CCCCN(C)C(=O)C1CCN(c2nn3cc(-c4ccc(OC)cc4)nc3s2)CC1	103.4
O=c1c2ccccc2nc(-c2ccccc2)n1OCc1ccc(Br)cc1	92.2

Among those listed so far, these have a COOH group:
SMILES	Vaccinia pol inh
CC(C)(C)c1ccc(C(=O)CC(SC2CCCCC2)C(=O)O)cc1 (stereo unspecified)	99.4
CC(C)(C)c1ccc(Oc2ncccc2C(=O)O)cc1	99.2
Cc1cc(C)n(CCC(=O)O)n1	99.7
CC(=O)N1N=C(c2ccc(N(C)C)cc2)CC1NC(Cc1c[nH]c2ccccc12)C(=O)O (stereo unspecified)	100.0
O=C(O)C1C2C=CC(O2)C1C(=O)Nc1cccc(C(F)(F)F)c1 (stereo unspecified)	105.8
O=C(O)c1cccnc1	100.0
CCOc1ccccc1OCC(=O)O	104.2

Screening data from PubChem BioAssay.

An excerpt (hit frequency here may not be typical).
